Source: PubChem
Sa ugtP lethal = compounds lethal to S. aureus RN4220 ugtP deletion mutant. AID 1259309. 0.54% of 330,000 active. growth inhibition, % (concentration not given with the values). OD600 growth, 16 h; some inactives read as strong as hits;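 active = z-score under -3 and OD600 up to 0.15 on both plates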;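 note: plate controls were untreated wells for no effect and antibiotic for full effect; wells of about 80 µL received 100 nL stock; the first replicate is given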
BJeLR lethal = kills HRASV12-expressing BJeLR cells; 0.17% of 300,000 active; inhibition, % (concentration not given with the values); BJeLR (HRASV12) viability, CellTiter-Glo ATP luminescence, 48 h; reference of the scale not given here;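 active = replicate mean above 50%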;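 note: 50 nL library stock added to about 25 µL; numbers are from one replicate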
RN4220 kill = S. aureus RN4220 growth inhibition; OD600, 16 h; inhibition, % (no concentration beside the values); 0.33% of 330,000 active;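 active = z-score of -3 or lower and OD600 up to 0.18 on both plates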;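 note: plate controls were untreated cells for no effect and reference antibiotic for full effect; stock transfer was 100 nL into about 80 µL; one replicate is shown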
Mtb hypoxia rep = reduces hypoxia-regulated biosensor signal in M. tuberculosis | fluorescence inhibition, % (concentration not given with the values) | M. tuberculosis hypoxia-regulated fluorescent reporter, fluorescence | 0.1% of 300,000 active;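 active = 35 to 45% if threefold the growth effect, above 45% if 1.5-fold the growth effect; inactive = the rest, general growth blockers included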;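 note: wells of about 50 µL received 100 nL stock; 0% = vehicle wells and 100% = reference inhibitor wells; whole bacteria with a GFP reporter of the hypoxia response; strong numbers were not always called active; many hits fall short of the cut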
Autofluor counter = counter-screen for toxin protease inhibitors: compound fluorescence; 3.1% of 360,000 active; compound autofluorescence counterscreen, microsphere flow cytometry; active compounds read high; fluorescence intensity (test concentration not listed);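 active = at least 3 SD above the mean of all compounds, about 16000 in these data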;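 note: 100 nL of 1 mM stock went into each well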
PrP UTR inh = suppresses PrP 5' UTR mRNA reporter expression. cell-based PrP 5' UTR mRNA reporter, plate reader. inhibition, % (no concentration beside the values). 0.35% of 340,000 active. AID 488862;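 active = every replicate at 50% or more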;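 note: 0 = median of the neutral control wells; tested in H4 reporter cells; numbers are from one replicate; inactives centre near -14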
Mtb hypoxia rep growth = second read-out of Mtb hypoxia rep, no call of its own (marks repeat the call); growth inhibition, %; measured here: M. tuberculosis growth (absorbance);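 0% = vehicle and 100% = reference antibiotic; read after six days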
The depositor's hits bear a star; & = joins results of further samples.

Start of the data: the first 3 records (preview)
For COc1ccc(CNC(=O)CNC(=O)CNS(=O)(=O)c2ccc(C)c(C)c2)cc1 the results were Sa ugtP lethal -0.9, BJeLR lethal 6.0, RN4220 kill 0.8, Mtb hypoxia rep 7.2, Autofluor counter 4014, PrP UTR inh -13.3 and Mtb hypoxia rep growth -0.4.
For Cc1ccc(NC(=O)COC(=O)c2cc(=O)c3ccccc3o2)c(Br)c1 the results were Sa ugtP lethal 12.7, RN4220 kill 5.7, Autofluor counter 3082 and PrP UTR inh -0.1.
COc1ccc(C2Nc3ccccc3C(=O)N2c2ccccc2)cc1COc1ccccn1 (centres undefined) was read as Sa ugtP lethal 0.5, BJeLR lethal 7.9, RN4220 kill 2.5, Mtb hypoxia rep 11.8, Autofluor counter 8779, PrP UTR inh -6.7 and Mtb hypoxia rep growth 5.2.

The whole of this part, repeating the preview:
For COc1ccc(CNC(=O)CNC(=O)CNS(=O)(=O)c2ccc(C)c(C)c2)cc1 the results were Sa ugtP lethal -0.9, BJeLR lethal 6.0, RN4220 kill 0.8, Mtb hypoxia rep 7.2, Autofluor counter 4014, PrP UTR inh -13.3 and Mtb hypoxia rep growth -0.4.
For Cc1ccc(NC(=O)COC(=O)c2cc(=O)c3ccccc3o2)c(Br)c1 the results were Sa ugtP lethal 12.7, RN4220 kill 5.7, Autofluor counter 3082 and PrP UTR inh -0.1.
COc1ccc(C2Nc3ccccc3C(=O)N2c2ccccc2)cc1COc1ccccn1 (centres undefined) was read as Sa ugtP lethal 0.5, BJeLR lethal 7.9, RN4220 kill 2.5, Mtb hypoxia rep 11.8, Autofluor counter 8779, PrP UTR inh -6.7 and Mtb hypoxia rep growth 5.2.
Screening O=C(COc1ccccc1Cl)Nc1cnn(Cc2ccccc2)c1 returned Sa ugtP lethal -3.0, BJeLR lethal -2.6, RN4220 kill -5.9, Autofluor counter 2632 and PrP UTR inh 7.5.
COc1ccc(Oc2ccc(C(F)(F)F)cc2N)cc1 was read as Sa ugtP lethal 16.4, BJeLR lethal -10.6, RN4220 kill -0.6, Mtb hypoxia rep 6.2, Autofluor counter 4095, PrP UTR inh -25.5 and Mtb hypoxia rep growth -0.7.
`O=C(Nc1ccc2c(c1)CCC2)c1ccc(F)c(S(=O)(=O)N2CCOCC2)c1` gave Sa ugtP lethal -29.1, BJeLR lethal 1.7, RN4220 kill -0.9, Mtb hypoxia rep -8.7, Autofluor counter 6698, PrP UTR inh -25.7 and Mtb hypoxia rep growth 2.0.
Screening NC(=O)C1CCN(C2CC(=O)N(c3ccc(F)c(Cl)c3)C2=O)CC1 (centres undefined) returned Sa ugtP lethal -0.9, BJeLR lethal 1.9, RN4220 kill -1.5, Mtb hypoxia rep 12.3, PrP UTR inh -10.1 and Mtb hypoxia rep growth 0.0.
For Cn1c(SCC(=O)O)nnc1-c1ccc(NC(=O)c2ccc(Cl)c(Cl)c2)cc1 the results were Sa ugtP lethal 5.4, BJeLR lethal 9.0, RN4220 kill -1.2, Mtb hypoxia rep 12.1, Autofluor counter 6210, PrP UTR inh -8.7 and Mtb hypoxia rep growth 2.6.
For Cc1cc(NCCCn2ccnc2)n2nc(C)c(-c3ccccc3)c2n1 the results were Sa ugtP lethal 9.9, BJeLR lethal 8.1, RN4220 kill -0.5, Mtb hypoxia rep -2.1, Autofluor counter 10470, PrP UTR inh -17.9 and Mtb hypoxia rep growth -0.5.
For Cc1cc2c(cc1S(=O)(=O)CCC(=O)N(C)Cc1ccccc1)OCC(=O)N2 the results were Sa ugtP lethal 5.2, BJeLR lethal 0.9, RN4220 kill 7.3, Mtb hypoxia rep -1.0, Autofluor counter 4725, PrP UTR inh -17.6 and Mtb hypoxia rep growth 1.2.
Screening CCn1cc(S(=O)(=O)Nc2ccccc2C(F)(F)F)cn1 returned Sa ugtP lethal -0.1, BJeLR lethal -2.6, RN4220 kill 15.9, Mtb hypoxia rep 10.1, Autofluor counter 4603, PrP UTR inh 9.3 and Mtb hypoxia rep growth 7.4.
For CC(=O)Oc1ccc2oc(=O)c3c(c2c1)CCCN3C(=O)CN1CCN(c2ncccn2)CC1 the results were Sa ugtP lethal 0.9, BJeLR lethal -5.8, RN4220 kill -3.7, Autofluor counter 4434 and PrP UTR inh -20.5.
`COc1ccc(NC(=O)NC(C)c2ccncc2)cc1OC` (centres undefined) gave Sa ugtP lethal 10.3, BJeLR lethal 6.6, RN4220 kill 2.8, Mtb hypoxia rep 9.2, Autofluor counter 7537, PrP UTR inh -16.9 and Mtb hypoxia rep growth 6.0.
CCOC(=O)C1CCN(C(=O)/C(=C/c2ccccc2)NC(=O)c2ccccc2)CC1 was read as Sa ugtP lethal 6.2, BJeLR lethal 1.8, RN4220 kill 4.3, Mtb hypoxia rep -5.8, Autofluor counter 3984, PrP UTR inh -19.5 and Mtb hypoxia rep growth -2.0.
For Cc1cc(C(=O)CCC(=O)N2CCN(c3ccccc3O)CC2)c(C)s1 the results were Sa ugtP lethal 7.9, RN4220 kill 7.7, Mtb hypoxia rep 4.6, Autofluor counter 5388, PrP UTR inh -16.4 and Mtb hypoxia rep growth 5.3.
Screening CN(Cc1ccccc1)C(=O)COC(=O)c1ccccc1Nc1ccccc1 returned Sa ugtP lethal 47.5, BJeLR lethal -6.3, RN4220 kill -2.6, Mtb hypoxia rep 10.1, Autofluor counter 6890, PrP UTR inh -7.1 and Mtb hypoxia rep growth 0.6.
For c1ccc(-n2c(Cc3cccnc3)nc3cnccc32)cc1 the results were Sa ugtP lethal 20.1, BJeLR lethal -0.8, RN4220 kill 6.1, Mtb hypoxia rep 22.1, Autofluor counter 3052, PrP UTR inh -9.8 and Mtb hypoxia rep growth 1.7.
For N#Cc1c(-c2cccs2)cc(-c2ccccn2)nc1N the results were Sa ugtP lethal -0.3, BJeLR lethal -6.3, RN4220 kill -2.6, Autofluor counter 4227 and PrP UTR inh -9.8.
Screening CCOc1ccccc1NC(=O)c1ccc(S(=O)(=O)N2CCCCC2)cc1 returned BJeLR lethal -6.5, Autofluor counter 2933 and PrP UTR inh -19.2.
For Cc1ccccc1Nc1nc(N)nc(CSCC(=O)Nc2cccc(Br)c2)n1 the results were Sa ugtP lethal -2.7, BJeLR lethal 4.7, RN4220 kill 5.9, Mtb hypoxia rep 4.2, Autofluor counter 2363, PrP UTR inh -6.6 and Mtb hypoxia rep growth -0.3.
For COC(=O)C1(C(=O)O)Cc2cc([N+](=O)[O-])ccc2N2CCCC21 (centres undefined) the results were Sa ugtP lethal 6.5, BJeLR lethal -17.8, RN4220 kill 2.2, Autofluor counter 2924 and PrP UTR inh -16.2.
Screening CC(=O)c1cc2c(cc1NC(=O)c1cnc(C)cn1)OCO2 returned Sa ugtP lethal -2.5, BJeLR lethal -19.1, RN4220 kill 1.1, Mtb hypoxia rep 4.3, Autofluor counter 9445, PrP UTR inh -4.5 and Mtb hypoxia rep growth 2.9.
CCc1cc(=O)oc2cc(C)cc(O)c12 was read as Sa ugtP lethal 4.3, BJeLR lethal 7.5, RN4220 kill -3.1, Autofluor counter 4479 and PrP UTR inh 10.9.
For NC(=O)CNC(=O)C1CC2(CC(c3cccc([N+](=O)[O-])c3)=NO2)CN1C(=O)c1ccccc1 (centres undefined) the results were Sa ugtP lethal -3.4, RN4220 kill 1.2, Mtb hypoxia rep -0.1 and Mtb hypoxia rep growth 8.6.
`Cc1cccc(C)c1NC(=O)C1c2ccccc2Oc2ccccc21` gave Sa ugtP lethal 1.5, BJeLR lethal 0.0, RN4220 kill 0.8, Mtb hypoxia rep 5.8, Autofluor counter 2587, PrP UTR inh -16.6 and Mtb hypoxia rep growth -5.8.
`C/C(N)=C(/C#N)C(=O)CSc1nnc(COc2ccccc2Cl)o1` gave Sa ugtP lethal -2.5&-6.9, BJeLR lethal 3.8, RN4220 kill 2.0&5.1, Mtb hypoxia rep -5.6&7.8, Autofluor counter 3748&4220, PrP UTR inh -3.7&-18.6 and Mtb hypoxia rep growth 2.0&11.0.
For CN(C(=O)c1ccc(NC(=O)Cc2ccc(NC(=O)C3CCCN(C(=O)C4CCCCC4)C3)cc2)cc1)C1CCCC1 (centres undefined) the results were Sa ugtP lethal 0.3, RN4220 kill 1.7, Mtb hypoxia rep -3.7, Autofluor counter 3546, PrP UTR inh 16.0 and Mtb hypoxia rep growth 4.7.
For Cn1nc(C(F)(F)F)c(-c2ccc(Br)cc2)c1NC(=O)CSCC(=O)O the results were Sa ugtP lethal -0.9, BJeLR lethal 6.7, RN4220 kill 0.8, Mtb hypoxia rep 2.8, Autofluor counter 4277, PrP UTR inh -17.4 and Mtb hypoxia rep growth 1.6.
Cc1c(C)n(Cc2ccccc2)c2ccc(C(=O)OCCCN(C)C)cc12 was read as Sa ugtP lethal -1.1, BJeLR lethal -9.6, RN4220 kill 3.9, Mtb hypoxia rep 14.5, Autofluor counter 4218, PrP UTR inh -29.7 and Mtb hypoxia rep growth 5.4.
Nc1nnc(SCC(=O)Nc2cccc3ccccc23)s1 was read as Sa ugtP lethal 7.2, BJeLR lethal -8.8, RN4220 kill -0.7, Mtb hypoxia rep 1.1, Autofluor counter 3109, PrP UTR inh -35.1 and Mtb hypoxia rep growth -2.8.
CC(=O)c1ccc(N2CCN(CC(O)COC(c3ccccc3)c3ccccc3)CC2)cc1 (centres undefined) was read as Sa ugtP lethal -11.0, BJeLR lethal -0.9, RN4220 kill -6.4, Mtb hypoxia rep -3.9, Autofluor counter 4768, PrP UTR inh -5.9 and Mtb hypoxia rep growth 1.1.
COCCCNC(=O)C(=O)NC1CCCCCC1 was read as Sa ugtP lethal 3.9, BJeLR lethal 2.2, RN4220 kill 2.5, Mtb hypoxia rep 6.2, Autofluor counter 2060, PrP UTR inh -3.6 and Mtb hypoxia rep growth 6.6.
Screening Cc1ccccc1NC(=O)Nc1ccc(C(F)(F)F)cc1 returned Sa ugtP lethal -8.1, BJeLR lethal 0.2, RN4220 kill 4.0, Mtb hypoxia rep 7.4, Autofluor counter 2659, PrP UTR inh -70.5 and Mtb hypoxia rep growth 6.4.
O=C(CCN1C(=O)c2ccccc2C1=O)Nc1ccc(S(=O)(=O)NC2=NCCCCC2)cc1 was read as Sa ugtP lethal 3.3, RN4220 kill 0.6, Mtb hypoxia rep 2.8, Autofluor counter 4073, PrP UTR inh -21.8 and Mtb hypoxia rep growth 6.9.
For Cn1c(=O)cc(N2CCCCC2)[nH]c1=O the results were Sa ugtP lethal 16.6, BJeLR lethal -0.2, RN4220 kill 22.8, Mtb hypoxia rep -11.9, Autofluor counter 5734, PrP UTR inh -8.1 and Mtb hypoxia rep growth -11.7.
For CCOC(=O)C1=C(N)OC2=C(C(=O)CC(C)(C)C2)C1c1ccccc1OCC#N (centres undefined) the results were Sa ugtP lethal 2.9, BJeLR lethal -0.4, RN4220 kill 3.8, Mtb hypoxia rep -1.3, Autofluor counter 20405*, PrP UTR inh -31.0 and Mtb hypoxia rep growth -0.2.
`COc1ccc(/C(C)=N/NC(=O)CNC(=O)C(c2ccccc2)c2ccccc2)c(OC)c1` gave BJeLR lethal -5.2, Autofluor counter 6374 and PrP UTR inh -32.5.
`Cc1ccc(C2C(C#N)=C(N)N(c3cccnc3)C3=C2C(=O)CCC3)s1` (centres undefined) gave Sa ugtP lethal 15.0, BJeLR lethal -2.0, RN4220 kill 4.4, Mtb hypoxia rep 16.5, Autofluor counter 2554, PrP UTR inh -4.9 and Mtb hypoxia rep growth 11.5.
COc1cc(C(=O)Nc2nnc(SCC(=O)NCC3CCCO3)s2)cc(OC)c1OC (centres undefined) was read as Sa ugtP lethal -0.7, BJeLR lethal -6.7, RN4220 kill 3.8, Mtb hypoxia rep 4.7, Autofluor counter 5145, PrP UTR inh -16.3 and Mtb hypoxia rep growth 0.9.
For COc1ccc(NC(=O)CN2CCc3ccccc3C2)cc1 the results were Sa ugtP lethal -1.7, RN4220 kill -0.4, Mtb hypoxia rep -0.3, Autofluor counter 3536, PrP UTR inh -3.1 and Mtb hypoxia rep growth 7.5.
`O=c1oc(-c2ccc([N+](=O)[O-])cc2)nc2ccc(O)cc12` gave Sa ugtP lethal -4.7, BJeLR lethal -8.2, RN4220 kill 6.3, Mtb hypoxia rep 1.4, Autofluor counter 3454, PrP UTR inh -31.9 and Mtb hypoxia rep growth 8.6.
`CCN(CC)CC(=O)Nc1ccc(C)cc1Br` gave Sa ugtP lethal -5.8, BJeLR lethal -0.9, RN4220 kill 5.9, Autofluor counter 4512 and PrP UTR inh -22.2.
For CCC(C)(C)NC(=O)Nc1cc(Cl)ccc1OC the results were Sa ugtP lethal 3.5, BJeLR lethal -4.6, RN4220 kill 2.9, Mtb hypoxia rep -6.7, Autofluor counter 2398, PrP UTR inh 0.1 and Mtb hypoxia rep growth -1.9.
